Six1-Eya2 inh = qHTS Assay for Inhibitors of the Six1/Eya2 Interaction; 360,000 tested, 0.56% active; activity change, % (no concentration beside the values); AlphaScreen GST-Six1/His-Eya2 binding, biochemical; hits give low values; control for the full effect not named in the record; Homeobox protein SIX1 (Homo sapiens) + Protein phosphatase EYA2 (Homo sapiens), …; in the data active = activity change below about -65%; inconclusive = about -30% to -65%; inactive = above about -30%; note: % is set by controls: 0 for no effect and ±100 for the full control effect; compound concentration not given in the record
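Six1/Eya2 binding was read as AlphaScreen signal after compounds were pinned into GST-Six1 plus His-tagged Eya2 (5X stock 250/500 nM) in pH 8.0 Tris/NaCl/TCEP buffer, beads added, then incubated 1 h, 37 C, dark.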
CtBP-E1A inh = qHTS Assay for Inhibitors of the CtBP/E1A Interaction. CtBP / adenovirus E1A interaction (AlphaScreen). AlphaScreen GST-E1A/His-CtBP binding, 1536-well; hits give low values; control for the full effect not named in the record. 340,000 tested, 0.49% active. activity change, % (test concentration not listed); in the data active means activity change below about -65%; inconclusive means about -30% to -65%; inactive means above about -30%; note: % is set by controls: 0 for no effect and ±100 for the full control effect; compound concentration not given in the record
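GST-E1A and His-tagged CtBP (125 nM each as 5X stock) were preincubated with pin-transferred compound for 2 h at 37 °C in the dark, then glutathione donor and nickel acceptor beads were added for 1 h before AlphaScreen reading.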
TRPML1 ag = qHTS for Agonists of the Human Mucolipin Transient Receptor Potential 1 (TRPML1); Mucolipin-1 (Homo sapiens), Q9GZU1; TRPML1-expressing cells, Ca2+ dye fluorescence, FDSS; host cell line not named in the record; reference of the full effect not given here; activation, % (concentration not given with the values); 410,000 tested, 0.12% active; AID 624414, 2012; in the data active = activation above about 50%; inconclusive = about 30% to 50%; inactive = below about 30%; note: 0% is about no effect; the text of the record puts the active cut at 80%
Target sequence (Q9GZU1 whole entry, looked up): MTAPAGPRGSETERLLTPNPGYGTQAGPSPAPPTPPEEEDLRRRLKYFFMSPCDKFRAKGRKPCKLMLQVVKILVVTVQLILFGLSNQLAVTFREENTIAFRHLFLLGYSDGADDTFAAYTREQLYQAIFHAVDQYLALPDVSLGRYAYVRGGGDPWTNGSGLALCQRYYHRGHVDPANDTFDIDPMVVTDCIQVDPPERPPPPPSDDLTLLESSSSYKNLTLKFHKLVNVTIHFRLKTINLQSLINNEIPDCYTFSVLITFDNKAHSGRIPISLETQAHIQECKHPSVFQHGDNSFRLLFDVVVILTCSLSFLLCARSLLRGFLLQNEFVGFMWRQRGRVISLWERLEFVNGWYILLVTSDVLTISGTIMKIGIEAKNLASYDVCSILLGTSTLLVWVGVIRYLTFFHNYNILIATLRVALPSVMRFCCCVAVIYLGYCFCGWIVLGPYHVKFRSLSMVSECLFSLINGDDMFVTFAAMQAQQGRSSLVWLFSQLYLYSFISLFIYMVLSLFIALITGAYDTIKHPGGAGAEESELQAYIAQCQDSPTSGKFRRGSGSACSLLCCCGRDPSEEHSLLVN
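Kinetic FDSS Ca2+ read in Tet-induced TRPML1-DL cells (ABD Ca8 dye plus quencher, 45-90 min RT loading): baseline, then compound, then 110 s agonist window; EC80 agonist 54-4 at 4uM final added afterwards for a 110 s antagonist window.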
TRPML1 blocker = qHTS for Inhibitors of the Human Mucolipin Transient Receptor Potential 1 (TRPML1); Mucolipin-1 (Homo sapiens), Q9GZU1; TRPML1-inducible cells, Ca2+ dye fluorescence, FDSS; hits give low values; inhibition of EC80 agonist-evoked calcium signal; activity change, negative = inhibition, % (concentration not given with the values); AID 624415, 2012; 390,000 tested, 0.02% active; in the data active means activity change below about -50%; inconclusive means about -30% to -50%; inactive means above about -30%;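 note: stimulus is agonist 54-4 at its EC80 concentration; % is set by controls: 0 for no effect and ±100 for the full control effect; compound concentration not given in the record; the text of the record puts the active cut at -80%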
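TRPML1-DL cells, Tet-induced overnight (~16 h, 37 °C) at 1,500 cells/well, were loaded with Ca8 no-wash dye plus quencher for 45-90 min at room temperature. Compounds were pinned during FDSS kinetic reading; agonist 54-4 at EC80 (4 uM final) then added.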
D2 agonist = Beta-Arrestin HTS for Positive Allosteric Modulators of the Human D2 Dopamine Receptor: Agonists | D(2) dopamine receptor (Homo sapiens), P14416 | DiscoveRx PathHunter D2 beta-arrestin, luminescence, 90 min; 100% = 57 uM dopamine signal | activation, % (concentration not given with the values) | 360,000 tested, 0.084% active; in the data active = activation above about 40%; inconclusive = about 15% to 40%; inactive = below about 15%; note: compound concentration not given in the record; the text of the record calls up to 30% inactive
Target sequence (P14416 whole entry, looked up): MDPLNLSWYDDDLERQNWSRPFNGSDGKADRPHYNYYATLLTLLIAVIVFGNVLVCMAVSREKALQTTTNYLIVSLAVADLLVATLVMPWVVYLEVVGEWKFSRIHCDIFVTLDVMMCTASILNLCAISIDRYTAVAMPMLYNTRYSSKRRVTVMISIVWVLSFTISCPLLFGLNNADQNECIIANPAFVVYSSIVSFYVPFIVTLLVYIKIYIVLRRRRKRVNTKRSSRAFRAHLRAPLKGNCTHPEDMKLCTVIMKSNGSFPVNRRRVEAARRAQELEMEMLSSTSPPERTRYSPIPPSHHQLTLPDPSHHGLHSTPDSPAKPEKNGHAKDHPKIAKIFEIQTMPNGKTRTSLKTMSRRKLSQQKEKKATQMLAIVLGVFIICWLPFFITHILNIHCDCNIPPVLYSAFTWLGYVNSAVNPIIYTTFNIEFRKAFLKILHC
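Agonist mode: compounds alone added to overnight-plated D2 PathHunter cells for 90 min at 37 C, with 57 uM final dopamine (EC100) defining full response. Beta-arrestin recruitment detected by chemiluminescent reagent, read after 1 h at ambient temperature.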
PINK1 modulator = A Quantitative High throughput Screen to Identify Chemical Modulators of PINK1 Expression; PINK1 immunofluorescence, high-content cytometry, 24 h; AID 624263, 2012; 410,000 tested, 0.2% active; Potency, µM (series often up to 76.6 µM), for inactives: top-dose activation (PINK1 increase), usual class: activators; active = well fitted activation curve with a large enough effect; inconclusive = small, poorly fitted or top-dose-only effect; inactive = flat fitted curve, though single readings scatter; cell line not stated here;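 note: potency is the fitted concentration of half-maximal effect; % of control where 0% means no effect; nearly all actives have a fitted effect of over 65% in size; a mitochondrial uncoupler was the plate control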
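Decision-based qHTS: stable cells, 24 h exposure to five compound concentrations, CCCP as control. Fixed cells stained for PINK1 plus nuclear, mitochondrial and cell markers, cytometer read.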
The depositor's hits bear a star; ? = inconclusive; · = no result given; & = joins results of further samples; [ ] = remark or other dose.

SMILES	Six1-Eya2 inh	CtBP-E1A inh	TRPML1 ag	TRPML1 blocker	D2 agonist	PINK1 modulator
CCOc1ccc(NC(=O)NC2CC(=O)N(c3ccc(OC)cc3)C2)cc1 (configuration not stated)	-3	4	-0.8	-6	-3.6	1.0%
CCCCCCc1ccc(OCC(=O)OC)cc1OCC(=O)OC	23	5	-0.4	-6	-3.7	-1.2%[38.3 µM]
COc1ccc(N2C(=O)C(CC(=O)Nc3ccc(Cl)cc3)N(Cc3ccc4c(c3)OCO4)C2=O)cc1 (configuration not stated)	·	·	0.5	-8	·	1.3%
CCOc1cc(/C=C2\SC(=S)N(Nc3ccccc3)C2=O)ccc1O	?	?	22	47	-8.8	?
C[C@@H]1CC[C@]2(C(=O)O[C@@H]3O[C@H](CO)[C@@H](O)[C@H](O)[C@H]3O)CC[C@]3(C)C(=CCC4[C@@]5(C)C[C@@H](O)[C@H](O)[C@@](C)(C(=O)O[C@@H]6[C@H](O)C[C@@]7(C)C(CC[C@]8(C)C7CC=C7[C@H]9[C@](C(=O)O[C@@H]%10O[C@H](CO)[C@@H](O)[C@H](O)[C@H]%10O)(CC[C@@H](C)[C@@]9(C)O)CC[C@]78C)[C@@]6(CO)C(=O)O)C5CC[C@]43C)[C@@H]2[C@]1(C)O (some centres not stated)	3	-6	-0.1	-10	-1.9	-1.2%
CC(=O)N1CCOc2ccc(S(=O)(=O)NC(C)c3ccccc3)cc21 (configuration not stated)	6	-5	0.0	8	-1.4	-0.5%
CNC(=O)c1sc(=S)n(-c2ccc(OC)cc2)c1N	10	0	-0.9	-9	5.1	-0.7%
CCN(CC)CCOC(=O)c1ccc2c(c1)OCCO2	4	10	0.0	-6	-0.7	·
COc1ccc(CN(Cc2nc3ccccc3c(=O)[nH]2)C(=O)c2ccco2)cc1	2	-23	1.2	3	0.5	2.4%
O=C(C[C@H]1C(=O)N(c2ccc(Br)cc2)C[C@@H]1Cc1ccccc1)Nc1ccccc1	16	20	0.3	-9	-2.7	0.6%
COC(=O)c1cc(C(=O)Nc2cccc(C)n2)cc([N+](=O)[O-])c1	-12	-2	-0.7	-21	4.0	2.0%
Nc1nc2ccccc2n1/N=C/c1ccc(-c2ccccc2)o1	-8	-9	2.9	-4	-2.2	2.5%
O=C(Cn1c(=O)c2c(ncn2Cc2ccccc2)n(Cc2ccccc2)c1=O)N1CCCC1	-5	-4	1.4	29	-3.7	1.0%
CCOc1ccc2nc(COC(=O)c3ccncc3)c(C(=O)c3ccccc3)[n+]([O-])c2c1	-2	·	0.8	-24	-4.3	-1.5%
CCC(C)(C)NC(=O)CCCSc1nc2ccccc2s1	0	8	2.6	5	-3.6	0.3%
COC(=O)CNC(c1ccccc1)c1cc(C)ccc1NC(=O)CNC(=O)OCc1ccccc1 (configuration not stated)	-2	-2	0.7	8	-2.8	-0.9%
CCC(=O)OCC(=O)c1c(N)n(Cc2ccccc2)c(=O)n(C)c1=O	7	2	-0.5	31	-1.0	2.6%
COc1ccc(-c2cc(C(F)(F)F)n3nc(C(=O)OC(C)C)cc3n2)cc1	·	·	1.6	-9	·	4.5%
CCCCn1c(N)c(N(CCOC)C(=O)c2ccc(S(=O)(=O)N(CC)c3ccccc3)cc2)c(=O)[nH]c1=O	-1	8	0.0	-8	-4.7	4.4%
CSc1ccc(CCNC(=O)CS(=O)(=O)Cc2nc(-c3ccccc3F)oc2C)cc1	4	2	0.3	-10	-2.4	5.6%
COc1ccc(S(=O)(=O)N2CCCC(C(=O)N3CCN(C)CC3)C2)cc1Cl (configuration not stated)	1	1	0.6	16	-0.9	-1.0%
O=C(CSc1n[nH]c(-c2ccccc2)n1)NCCc1ccccc1	·	·	-0.2	-11	·	1.1%
O=C(Nc1ccc(S(=O)(=O)NC2=NCCCCC2)cc1)c1cccs1	-6	·	-1.3	9	-2.6	1.5%
COc1ccc(C)cc1Nc1n[n+](-c2ccccc2)c(-c2ccc(OC)c(OC)c2OC)s1	0	-3	1.8	-16	-3.9	?
COCCNC(C)C(=O)Nc1ccc(Br)cc1 (configuration not stated)	5	14	-0.2	-7	-0.7	17%[38.3 µM]
CCN1CCN(C(=O)c2ccc(N3CC4CC(C3)c3cccc(=O)n3C4)c([N+](=O)[O-])c2)CC1 (configuration not stated)	15	2	-0.3	6	-3.6	1.9%
N#C/C(=C(/O)COC(=O)CCc1ccc(S(=O)(=O)N2CCOCC2)cc1)c1nc2ccccc2[nH]1	-23	-11	2.2	6	-1.7	-1.5%
Cc1ccc(C(=O)OCC(=O)N(C)c2ccccc2)c(C)c1	0	21	1.0	21	-2.9	1.0%
CC1(C)O[C@@H]2C[C@H]3[C@@H]4C[C@H](F)C5=CC(=O)C=C[C@]5(C)[C@H]4[C@@H](O)C[C@]3(C)[C@]2(C(=O)CO)O1	3	7	0.3	-5	-7.1	3.7%
Cc1cc(C)cc(OCC(=O)OCc2nnc(-c3ccccc3)o2)c1	12	1	1.1	-8	-6.8	1.9%
Cc1ccc(C2Nc3ccccc3C(=O)N2CCN2CCNC2=O)cc1 (configuration not stated)	-3	-15	1.5	48	0.1	-0.8%
COC(=O)c1ccc(CNC(=O)Cn2cc(C)c(=O)[nH]c2=O)cc1	2	4	-0.9	3	-1.2	1.1%
Cc1nc2ccccc2n1CC(=O)NCc1ccccc1	4	13	-0.6	5	-1.9	2.2%[38.3 µM]
Cc1sc2ncnc(N3CCCCC3)c2c1C	-1	8	1.6	23	-2.2	3.8%[38.3 µM]
CCOc1cc(/C=C/C(=O)O)ccc1OCc1ccccc1	-13	3	-1.5	4	-2.3	0.9%
O=C(NCC1CCCO1)c1cccnc1Nc1ccccc1F (configuration not stated)	-3	11	4.0	6	-0.2	3.0%[38.3 µM]
O=C(Nc1ccccc1)NC1(C(=O)NCc2ccco2)CCCCC1	4	-2	-1.5	3	1.3	-3.0%
N#C/C(=C\Nc1ccccc1SC(F)(F)F)c1nc(-c2ccccc2)cs1	3	·	1.2	7	-6.5	0.0%
Cc1cccc(-c2nnc(SCc3ccccc3)o2)c1	34	27	-0.8	3	-3.4	-1.6%
O=C(NC1CCC(O)CC1)c1cc(-c2ccco2)nc2ccccc12 (configuration not stated)	-18	4	1.4	-8	0.3	1.7%
Cc1cc(C)c(NC(=O)CCCn2c(=O)oc3ccccc32)c(C)c1	-1	-16	1.5	20	-2.9	9.0%
CC(=O)N1CCCc2cc(S(=O)(=O)N3CCCC(C(=O)Nc4cccc(Cl)c4C)C3)ccc21 (configuration not stated)	·	·	0.4	-3	·	-1.1%
COC(=O)C(Cc1ccccc1)NC(=O)CC(C)CC(=O)Nc1ccc(OC)cc1OC (configuration not stated)	-1	·	-0.2	18	-2.5	0.4%
CC1=CC(=O)Nc2ncccc2O1	?	-9	0.4	5	-3.4	-0.1%
Cc1cc(C)cc(C(=O)Nc2cccc(NC(=O)c3ccco3)c2)c1	2	0	3.3	-3	-4.1	2.1%
C=CCCC1CN(CCCC)S(=O)(=O)c2c(F)cccc2O1 (configuration not stated)	23	35	1.1	13	0.5	1.8%
CC1(C(=O)NS(=O)(=O)c2cccc(F)c2)CCN1C(=O)Cc1cccs1 (configuration not stated)	11	-24	0.7	-5	-5.3	0.4%
CCCCNC(=O)N(O)C1N(/N=C/c2cccs2)C(=S)SC1(C)C (configuration not stated)	16	0	0.5	-8	-3.2	0.1%

Compound profiles, from the list above. Order of screens: Six1-Eya2 inh, CtBP-E1A inh, TRPML1 ag, TRPML1 blocker, D2 agonist, PINK1 modulator
COC(=O)C(Cc1ccccc1)NC(=O)CC(C)CC(=O)Nc1ccc(OC)cc1OC (configuration not stated) reads -1, ·, -0.2, 18, -2.5, 0.4%
O=C(NC1CCC(O)CC1)c1cc(-c2ccco2)nc2ccccc12 (configuration not stated) reads -18, 4, 1.4, -8, 0.3, 1.7%
C=CCCC1CN(CCCC)S(=O)(=O)c2c(F)cccc2O1 (configuration not stated) reads 23, 35, 1.1, 13, 0.5, 1.8%
N#C/C(=C\Nc1ccccc1SC(F)(F)F)c1nc(-c2ccccc2)cs1 reads 3, ·, 1.2, 7, -6.5, 0.0%

The results go on:
SMILES	Six1-Eya2 inh	CtBP-E1A inh	TRPML1 ag	TRPML1 blocker	D2 agonist	PINK1 modulator
CN(CCCNC(=O)COc1cc(=O)n(C)c2ccccc12)Cc1ccccc1	4	-4	-0.2	5	1.0	·
COC(=O)c1ccc(-n2c(CCC(=O)O)ccc2-c2ccc(C)cc2)cc1	-3	-7	1.2&-0.1	1&14	-0.5	-3.5%&-0.4%
O=C(NC1CCS(=O)(=O)C1)C1CCCC1 (configuration not stated)	6	-2	-1.1	13	-5.5	1.0%
S=c1[nH]nc(-c2cccs2)n1/N=C/c1cn(-c2ccccc2)nc1-c1ccccc1	-24	-24	-0.8	2	-3.5	2.9%
COc1ccccc1C(C(=O)NCc1ccc(F)cc1)N(C(=O)c1csnn1)C1CC1 (configuration not stated)	7	-15	0.5	3	2.0	-0.4%
O=C(Nc1cccc(-c2ccccc2)c1)N1CCN(C(=O)Nc2cccc(-c3ccccc3)c2)CC1	-25	-8	2.0	-5	-3.5	4.9%
CCOc1ccc(S(=O)(=O)Nc2ccccc2SC)c2cccnc12	-7	-5	0.3	4	2.2	-1.4%
COc1ccccc1NC(=O)c1ccc(NC2=NC3CS(=O)(=O)CC3S2)cc1 (configuration not stated)	0	1	-0.1	-3	-8.5	-0.8%
COc1cc2c(cc1OC(C)=O)CCCCC2=O	7	-17	0.8	14	-2.8	-0.7%
COc1ccc(C)cc1S(=O)(=O)Nc1cccc(Cl)c1Cl	-12	-2	-0.3	2	-1.2	1.6%
C/C(=N\NS(=O)(=O)c1ccccc1)c1ccc2c(c1)OCCO2	0	-18	-0.8	-10	0.0	2.4%
CNC(=O)c1ncoc1-c1ccc(Cl)cc1	3	-6	-0.8	-23	-1.3	0.6%
COc1ccc(CCNC(=O)COc2cccc3c2OC(C)(C)C3)cc1OC	-8	3	1.8	-15	0.9	0.5%
COc1ccc(-c2nnn(CC(=O)N3CCN(c4ccccc4OC)CC3)n2)cc1	0	5	-0.4	-1	0.6	-1.5%
CCCc1cc(=O)[nH]c(SCC(=O)c2cc(C)n(CCOC)c2C)n1	5	-2	0.4	-9	-0.2	-0.5%
Cc1nc2c(ccc3c([N+](=O)[O-])cccc32)c(C)c1C	10	·	0.8	-3	-2.9	4.1%

Bioassay records (PubChem BioAssay)

Rows were taken by chance; 1% or so of the library scored in one or more.
